RecA intein inh – Mtb RecA intein splicing inhibitors, primary screen, biochemical, fluorescence, HTS; Protein RecA (Mycobacterium tuberculosis (strain ATCC 25618 / H37Rv)), P9WHJ3; cell-free RecA intein splicing; inhibition, %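 (about 9 µM by stock and volumes)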; 0.75% of 290,000 active; in the data active = inhibition above about 30%; inconclusive = no clear call, values can overlap the other calls;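 note: 0% = vehicle wells and 100% = reference inhibitor control wells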
Target sequence (P9WHJ3 whole entry, looked up): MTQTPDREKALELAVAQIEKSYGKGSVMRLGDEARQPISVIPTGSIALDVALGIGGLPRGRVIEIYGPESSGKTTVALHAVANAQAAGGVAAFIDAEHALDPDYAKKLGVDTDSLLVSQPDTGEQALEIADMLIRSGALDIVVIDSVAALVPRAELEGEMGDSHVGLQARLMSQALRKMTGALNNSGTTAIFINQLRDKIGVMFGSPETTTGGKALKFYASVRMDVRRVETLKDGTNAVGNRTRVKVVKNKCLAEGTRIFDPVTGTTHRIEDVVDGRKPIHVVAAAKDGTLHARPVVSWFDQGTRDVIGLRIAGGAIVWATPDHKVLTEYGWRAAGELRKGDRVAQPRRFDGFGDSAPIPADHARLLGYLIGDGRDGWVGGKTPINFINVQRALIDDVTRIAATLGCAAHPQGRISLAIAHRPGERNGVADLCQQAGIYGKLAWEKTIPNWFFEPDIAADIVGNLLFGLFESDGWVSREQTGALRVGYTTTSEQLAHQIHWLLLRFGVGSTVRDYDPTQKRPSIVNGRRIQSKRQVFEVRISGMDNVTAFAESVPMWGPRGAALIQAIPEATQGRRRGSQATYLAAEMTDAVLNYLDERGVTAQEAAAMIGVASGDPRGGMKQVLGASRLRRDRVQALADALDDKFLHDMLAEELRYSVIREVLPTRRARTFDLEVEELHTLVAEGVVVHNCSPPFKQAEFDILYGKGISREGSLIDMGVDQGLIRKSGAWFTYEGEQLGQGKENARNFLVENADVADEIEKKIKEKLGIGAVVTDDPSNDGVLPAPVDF
YopH inh – YopH tyrosine phosphatase inhibitors, primary screen, biochemical, fluorescence Ex485/Em525. YopH tyrosine phosphatase [Yersinia enterocolitica]. inhibition, %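 (about 10 µM by stock and volumes)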. 0.16% of 140,000 active. AID 898, 2007;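 active = inhibition of 50% or more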;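 note: controls were vehicle for no effect and minimum signal wells for full effect; inactives centre near -20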
Mtb bLac sens – beta-lactam sensitization of Mtb H37Rv, H37Rv; M. tuberculosis H37Rv growth with meropenem, percent inhibition; hits of this screen are not shown here; 0.27% of 330,000 active; AID 434955, 2010; inhibition, % at 25 µM;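 active = about 74% or more and at least 40 points above the plate without the antibiotic, then above 30% in a dose series; inconclusive = first-round hits that could not be retested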;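 note: growth measured after seven days incubation then overnight dye step; 0% = bacteria only wells and 100% = bacteria with antibiotic; twin plates without the antibiotic show which effects depend on it; some results filed as inactive read as strong as hits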
Arbovirus inh – antivirals against arbovirus infection, primary screen, cell-based, full library, 10K replicate subset | arbovirus infection cell-based antiviral screen | inhibition, % at 10 µM | 0.37% of 200,000 active | AID 1251, 2008;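 active = inhibition from about 30%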;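 note: bluetongue infection of BSR cells; cell survival read as ATP light after 72 h; 0% = infected wells without compound and 100% = uninfected wells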
Mtb growth – M. tuberculosis H37Rv growth inhibitors, H37Rv strain (AID 1626); M. tuberculosis H37Rv growth inhibition; higher % means a stronger effect; inhibition, % at 10 µM; hits with a dose series show IC50 in µM; 0.95% of 220,000 active;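 active = confirmed in a dose series; inconclusive = inhibition above 80% but not taken into the dose series; inactive = below 80% or under 30% at every dose of the series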;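 note: bacteria incubated seven days before Alamar blue readout; 0% = bacteria only wells and 100% = bacteria with antibiotic wells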
Arbovirus inh repeat – further read-out of Arbovirus inh, marked with its call; inhibition, %; measured here: 10K subset replicate screen; many hits read low in the repeat;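 first of two repeat runs on a subset; 0% = infected and 100% = uninfected wells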
Starred values were filed as active, the others as inactive; ? = inconclusive; · = not tested or not shown.

Start of the listing, in advance (four entries):
SMILES	RecA intein inh	YopH inh	Mtb bLac sens	Arbovirus inh	Mtb growth	others
O=C(O)Cc1ccc(C(=O)CSc2ccccc2)s1	7.3	·	-3	·	0%
CCc1nn(CC(=O)NCCN2CCOCC2)c(=O)c2cc3c(OC)cccc3n12	-0.5	·	0	·	·
CCCCOc1ccc(N2CC(C(=O)NCCc3ccc(OC)c(OC)c3)CC2=O)cc1 (stereo not drawn)	-0.2	·	-2	4	1%
CCOC(=O)C(C(=O)OCC)C(C[N+](=O)[O-])c1ccccc1 (stereo not drawn)	-0.9	·	-4	4	3%

Results, previewed entries included:
SMILES	RecA intein inh	YopH inh	Mtb bLac sens	Arbovirus inh	Mtb growth	others
O=C(O)Cc1ccc(C(=O)CSc2ccccc2)s1	7.3	·	-3	·	0%
CCc1nn(CC(=O)NCCN2CCOCC2)c(=O)c2cc3c(OC)cccc3n12	-0.5	·	0	·	·
CCCCOc1ccc(N2CC(C(=O)NCCc3ccc(OC)c(OC)c3)CC2=O)cc1 (stereo not drawn)	-0.2	·	-2	4	1%
CCOC(=O)C(C(=O)OCC)C(C[N+](=O)[O-])c1ccccc1 (stereo not drawn)	-0.9	·	-4	4	3%
N#CNC(=Nc1cccc(F)c1)SCc1ccccc1	6.7	-13	0	5	-3%
CC(CC(=O)NNC(=O)c1ccncc1)c1ccccc1 (stereo not drawn)	-6.2	·	-9	·	·
CCOC(=O)COn1c(=O)c(-c2ccco2)[n+]([O-])c2ccccc21	-6.2	-19	-10	-3	-1%
CCCN1C(=O)C(Cc2nc3ccccc3c(=O)n2-c2ccccc2)c2ccccc21 (stereo not drawn)	9.5	-39	4	-5	0%
COc1ccc2[nH]cc(C(=O)C(=O)N3CCCCC3)c2c1	3.0	·	-5	·	·
Cc1ccc(N2CC(O)Cn3c2nc2c3c(=O)n(C)c(=O)n2C)cc1 (stereo not drawn)	-1.8	·	-4	·	·
CCOC(=O)c1ccc(NC(=O)C2C3C=CC(O3)C2C(=O)O)cc1 (stereo not drawn)	-0.4	-33	94	0	?
CC(=O)c1ccc(N2CCN(C(=O)Nc3ccc(F)cc3)CC2)cc1	-2.0	·	-5	11	8%
O=C(NCc1cccc(F)c1)C1CCC(=O)N(CCc2cccc(F)c2)C1 (stereo not drawn)	-0.3	·	-2	·	·
COc1cc(C(=O)N2CCN(C)C(C)C2)ccc1OC1CCN(C(C)=O)CC1 (stereo not drawn)	-2.4	·	-1	·	·
Cc1ccc(S(=O)(=O)Cn2nnnc2C(CC(C)C)N2CCN(C3CCCC3)CC2)cc1 (stereo not drawn)	0.5	·	1	·	·
Cc1onc(CO)c1C(=O)Nc1nccs1	0.3	·	5	9	4%
Cc1c(/C=N/NC(=O)c2cccnc2)c2ccccn2c1C(=O)c1ccc(F)cc1	-1.3	-2	-1	16	3%
CCCOc1cccc(C2C(C(=O)c3ccco3)=C(O)C(=O)N2CCCn2ccnc2)c1 (stereo not drawn)	0.4	·	2	·	·
Cc1ccc(C(=O)/C=C/Nc2cccc([N+](=O)[O-])c2)o1	-1.2	-23	0	-7	-10%
Cc1nn(-c2ccc(F)cc2F)c2c1-c1nc(N3CCCC3)ncc1CC2	3.2	-22	89	-9	30%
O=C(NC1CCCCCC1)c1cc(S(=O)(=O)N2CCOCC2)ccc1F	-1.0	·	-3	·	·
Cc1cc(OC(=O)c2ccc(Cl)cc2)cc(=O)n1C	5.5	-58	3	-3	3%
O=C1c2ccccc2C(=O)N1CCSc1ccccc1	3.6	-17	10	2	-5%
COc1ccc(N(Cc2cc3cccc(C)c3[nH]c2=O)C(=O)C2CCCO2)cc1 (stereo not drawn)	0.2	·	-3	·	4%
C#CC[N+]1(C)[C@@H]2CC(OC(=O)C(CO)c3ccccc3)C[C@H]1C(O)C2 (stereo partly drawn)	0.3	·	-6	·	·
COc1ccccc1OCc1csc(NC(=O)c2ccco2)n1	0.1	-10	-13	3	0%
CCOc1ncccc1C(=O)Nc1cccc(-c2nc3cccnc3s2)c1	4.4	·	16	·	-15%
CCc1cc2c(SCC(=O)Nc3cc(C)on3)ncnc2s1	-4.3	·	0	1	0%
COC(=O)C1=CN(Cc2ccc(C)cc2)C=C(C(=O)OC)C1c1ccc(F)c(F)c1	-36	·	4	·	·
CCOCCCNC(=O)c1cccc(NC(=O)C2=C(C)OCCS2)c1	-0.8	·	-1	·	·

Looked up by structure from the entries so far (4):
SMILES	RecA intein inh	YopH inh	Mtb bLac sens	Arbovirus inh	Mtb growth	others
COc1ccc(N(Cc2cc3cccc(C)c3[nH]c2=O)C(=O)C2CCCO2)cc1 (stereo not drawn)	0.2	·	-3	·	4%
COc1ccccc1OCc1csc(NC(=O)c2ccco2)n1	0.1	-10	-13	3	0%
Cc1nn(-c2ccc(F)cc2F)c2c1-c1nc(N3CCCC3)ncc1CC2	3.2	-22	89	-9	30%
Cc1ccc(C(=O)/C=C/Nc2cccc([N+](=O)[O-])c2)o1	-1.2	-23	0	-7	-10%

Going on with the list.
SMILES	RecA intein inh	YopH inh	Mtb bLac sens	Arbovirus inh	Mtb growth	others
CN=C(SCC(=O)c1cccc(Cl)c1)c1c(O)n(C)c(=O)n(C)c1=O	1.2	·	-3	·	-2%
CCOC(=O)CSc1nc(N)c(C#N)c(-c2ccc(OC)cc2)c1C#N	3.2	-29	0	-1	?
Cc1cc(OCC(=O)c2ccc(C(F)(F)F)cc2)n2cnnc2n1	0.9	·	-5	·	-5%
O=CNC(n1cnc2c(N3CCOCC3)ncnc21)C(Cl)(Cl)Cl (stereo not drawn)	-0.7	·	-1	·	-8%
O=C(O)CSCC(=O)Nc1ccc(Cl)cc1C(F)(F)F	-0.8	·	-11	1	-5%
COc1ccc2c(C(=O)CN3CCSCC3)c[nH]c2c1	-2.0	·	-14	·	-7%
CCc1nc(N[C@@H](Cc2c[nH]c3ccccc23)C(=O)O)c2oc3ccccc3c2n1	2.3	-36	-2	5	-3%
O=C(Nc1ccc(S(=O)(=O)Nc2nccs2)cc1)c1ccc(F)c(S(=O)(=O)N2CCOCC2)c1	-2.8	·	-5	-4	2%
COC(=O)c1ccsc1NC(=O)CN1C(=O)CCC1=O	4.0	·	1	0	-3%	Arbovirus inh repeat=-5
COc1ccc(OC)c(-c2cc(C(=O)Nc3ccccc3C(N)=O)c3ccccc3n2)c1	5.4	·	82	·	·
Cc1ccc(C)c(S(=O)(=O)Nc2ccc(C(=O)NCCc3ccccn3)cc2)c1	-0.3	·	-4	5	-1%
CC(=O)O/N=C/c1c(Cl)n(C)c2ccccc12	-3.9	·	88	-1	?
O=C(NCCO)c1ccc2c(c1)S(=O)(=O)c1ccccc1C2=O	-1.1	-41	-3	2	-11%
CCn1nnc2cc(C(=O)NCC(c3ccccc3OC)N(C)C)ccc21 (stereo not drawn)	1.2	·	-5	·	·
COc1ccc(OC)c(S(=O)(=O)N2CCCC(N3CCN(c4ccccc4)CC3)C2)c1 (stereo not drawn)	0.7	·	-3	·	·

Molecules listed so far containing a CF3 group (two):
SMILES	RecA intein inh	YopH inh	Mtb bLac sens	Arbovirus inh	Mtb growth	others
Cc1cc(OCC(=O)c2ccc(C(F)(F)F)cc2)n2cnnc2n1	0.9	·	-5	·	-5%
O=C(O)CSCC(=O)Nc1ccc(Cl)cc1C(F)(F)F	-0.8	·	-11	1	-5%

Remaining list, next part.
SMILES	RecA intein inh	YopH inh	Mtb bLac sens	Arbovirus inh	Mtb growth	others
CC(C)(C)c1ccc(C(=O)NC(=S)NCc2cccnc2)cc1	6.1	-16	96	13	?
O=C(C1=C(O)C(=O)N(CC2CCCO2)C1c1ccccc1)c1ccco1 (stereo not drawn)	0.3	·	-7	·	·
COc1ccccc1CNC(=O)/C=C/c1cc2c(cc1Br)OCO2	-3.4	-17	8	-11	-5%
Cc1ccc(N2CCN(/N=C/c3ccccc3)CC2)cc1	-0.1	·	-10	9	1%
OCCSc1nnc(Nc2ccccc2)s1	-0.9	-57	-7	1	-6%
CSCC[C@H](NC(=O)OC(C)(C)C)C(=O)N1CCC(C(=O)N[C@H](C(=O)O)C(C)C)CC1	0.3	-2	3	5	10%
Cc1cc(NC(=O)CCN2C(=O)C3C4C=CC(C4)C3C2=O)ccc1Br (stereo not drawn)	2.0	·	89	4	35µM*
Cn1c2ccccc2c2cc(C(=O)N3CCOCC3)sc21	3.2	-13	14	-6	-1%
CCCCc1nnc(NC(=O)CSc2nc(=O)cc(N)n2-c2ccccc2)s1	0.3	2	-2	6	8%
O=C(CSc1nncn1-c1ccccc1)Nc1c(F)cccc1F	-1.7	·	-2	·	·
COc1cccc(CCNC(=O)CC2C(=O)NCCN2Cc2ccc(Cl)c(F)c2)c1 (stereo not drawn)	2.2	·	3	15	3%
COc1cccc(C(=O)/C=C/Nc2cccc(O)c2)c1	-2.0	-19	6	11	0%
COc1ccc(NC(=S)N2CCC(NC(=O)C3CCCCC3)CC2)cc1	0.1	·	-6	·	·
CCC(C(=O)Nc1nccs1)c1ccccc1 (stereo not drawn)	0.3	-13	9	0	-15%
Cc1nc(-c2ccccc2)sc1C(=O)/C=C/c1ccccc1	3.9	-32	99	-26	·
Cc1ccc(Cn2c(=N)c(C#N)cc3c(=O)n4cccc(C)c4nc32)cc1	-7.7	·	-4	-14	-4%
COc1ccccc1N1C(N)=NC(N)=NC1(C)C	-0.6	-36	-5	-3	1%
Cc1cc(=O)[nH]c(SCc2cc(=O)n3nc(C)sc3n2)n1	-0.2	-38	5	21	1%	Arbovirus inh repeat=0
COc1ccc(S(=O)(=O)N2CCC(C(=O)Nc3c(F)cccc3F)CC2)cc1	16	-32	-4	5	5%	Arbovirus inh repeat=5
CCC(C)(C)n1nnnc1C(c1ccccc1)N1CCN(Cc2ccccc2)CC1 (stereo not drawn)	0.4	·	0	0	-2%
COc1ccccc1C(=O)N(Cc1ccco1)C1CCS(=O)(=O)C1 (stereo not drawn)	-1.5	-34	-6	7	1%
Cc1cccc(C(=O)N2CCN(C(=O)c3cccc(C)c3)C(C)C2)c1 (stereo not drawn)	·	13	-1	-3	3%	Arbovirus inh repeat=4
Cn1cccc1CC(=O)NNC(=O)Nc1ccc(F)cc1	-0.4	-12	-1	-14	1%
Nc1ccc(-n2nncc2-c2ccc(Cl)cc2)cc1	1.1	0	5	-11	3%
O=C(CNC(=O)c1ccc(Br)o1)NCCc1ccc(F)cc1	0.1	·	-21	·	·
Cc1ccc(S(=O)(=O)/C(C#N)=C/c2ccccc2OCc2ccccc2)cc1	3.1	-18	-2	2	4%
O=C(C1=C(c2ccccc2)C(=O)c2ccccc2C1=O)c1ccccc1	36*	-30	·	-32	-2%
O=C(CN1CCN(c2ccccc2)CC1)N1CCc2ccccc21	-1.4	·	-1	·	·
CC(=O)c1ccc(NC(=O)COC(=O)c2ccccc2N=Nc2ccc(N(C)C)cc2)cc1	0.7	-26	96	14	55%
N#CCC(=O)NCC1(c2ccccc2)CCCC1	0.1	-7	-10	5	-5%
O=C1COc2ccc(-c3csc(NCC4CCCO4)n3)cc2N1 (stereo not drawn)	-0.3	-10	10	2	-3%
N#Cc1ncc(C(F)(F)F)cc1Sc1ccccc1N	2.8	-1	-5	0	9%
CC1CCCN(C(=S)NC2CCCC2)C1 (stereo not drawn)	5.3	·	-10	1	5%
COC(=O)c1sccc1NC(=O)C1CC2CCC1C2 (stereo not drawn)	0.5	12	1	0	-1%
CCn1c(C)nc2cc(C(=O)NNC(=S)Nc3ccc(Cl)cc3)ccc21	3.2	·	0	·	2%
O=C1CC(c2cc(F)ccc2F)c2cc3c(cc2N1)CCC3 (stereo not drawn)	-0.1	·	1	-21	4%
CC(=O)Nc1ccc(NC(=O)Nc2ccccc2C)cc1	-0.9	·	-4	3	2%
CCSc1cc(N2CCCC2)nc(-c2cccc(C)c2)n1	0.6	-16	10	26	25%
O=C(COC(=O)c1ccccc1NC(=O)c1ccco1)NCc1ccc2c(c1)OCO2	-4.4	-24	-17	-14	-6%
CC(NC(=O)Cc1cccs1)c1ccc2c(c1)OCO2 (stereo not drawn)	-0.2	25	20	2	4%
O=C(CCN1C(=O)COc2ccccc21)NCCC1=CCCCC1	-2.5	-32	4	1	-1%
COC(=O)CSC1=C(C#N)C(c2ccsc2)CC(=O)N1 (stereo not drawn)	0.4	-19	7	-23	7%
O=C(OCC(=O)c1cccs1)c1cccc(C(=O)OCC(=O)c2cccs2)n1	-0.6	-9	9	10	-2%
CC(=O)Nc1ccc(S(=O)(=O)NCc2nc(-c3ccc(C)cc3)no2)cc1	3.1	·	0	·	·
CCCCNC(=O)O/N=C(\N)CS(=O)(=O)C(C)(C)C	-0.6	·	-5	·	-2%
COc1ccccc1/C=N/NC(=O)CC(=O)Nc1ccc(Cl)c(Cl)c1	1.3	-38	-6	-2	-9%
CCOC(=O)C(=O)NC1CCSC1=O (stereo not drawn)	-0.8	0	12	-5	-8%

These rows are one share of the data (hit frequency here may not be typical).
